DUX4 txn inh = blocks DUX4-driven transcriptional activation | 293T-iDUX4 ZSCAN4-Gaussia luciferase reporter, 24 h; hits give low values | activity change, negative = inhibition, % (test concentration not listed) | hit rate 0.8% among 37,000 | AID 1224904;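 active = -10% or lower and over 25 points stronger than a control reporter; inconclusive = -10% or lower with a smaller gap; inactive = above -10%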;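 note: 0% = median of neutral control wells and -100% = median of positive control wells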
DUX4 txn inh difference = further read-out of DUX4 txn inh, marked with its call; Gaussia minus Italica difference, %; measured here: selective DUX4 reporter inhibition;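 worked out from the two reporters; negative = selective loss of the DUX4 reporter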
DUX4 txn inh control = second read-out of DUX4 txn inh, no call of its own (marks repeat the call); activity change, negative = inhibition, %; measured here: Italica tet-on control reporter;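 0 = neutral control and -100 = positive control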
An asterisk follows results filed as active; & = joins results of further samples. The list is partial, so the mix of outcomes need not match the whole.

How did Cc1noc(C)c1S(=O)(=O)Nc1ccc2c(c1)CC(=O)N([C@H](C)CO)C[C@@H](C)[C@H](CN(C)C(=O)Nc1cccc3ccccc13)O2 do in these assays?
DUX4 txn inh: 0.7; DUX4 txn inh difference: -1.0; DUX4 txn inh control: 1.7

What do the screens show for `COCC#Cc1ccc([C@@H]2[C@@H](CO)N3CCCCN(C(=O)CN(C)C)C[C@H]23)cc1`?
DUX4 txn inh: 21.5; DUX4 txn inh difference: 20.9; DUX4 txn inh control: 0.6

What do the screens show for `CN1C(=O)c2cc(NC(=O)Cc3cccs3)ccc2OC[C@H]2O[C@H](CC(=O)N[C@H]3CCN(Cc4ccccc4)C3)CC[C@H]21`?
DUX4 txn inh: -0.4; DUX4 txn inh difference: -1.2; DUX4 txn inh control: 0.7

How did COc1ccc([C@H]2C/C=C\C[C@H](c3ccc4c(c3)OCO4)NC(=O)CCC(=O)N2)c(OC)c1 do in these assays?
DUX4 txn inh: 3.4; DUX4 txn inh difference: 3.8; DUX4 txn inh control: -0.5

Results for COc1ccccc1CNC(=O)C[C@H]1C[C@@H]2c3cc(NC(=O)c4cccnc4)ccc3O[C@@H]2[C@H](CO)O1 ?
DUX4 txn inh: 1.6; DUX4 txn inh difference: 6.9; DUX4 txn inh control: -5.4

How did N#C[C@H]1[C@@H](c2ccc(C3=CCCCC3)cc2)[C@@H](CO)N1S(=O)(=O)c1cccc(F)c1 do in these assays?
DUX4 txn inh: -3.7; DUX4 txn inh difference: -1.5; DUX4 txn inh control: -2.2

What do the screens show for `C[C@@H]1CN([C@H](C)CO)S(=O)(=O)c2ccc(C#CC3CCCC3)cc2O[C@H]1CN(C)C(=O)Nc1cc(F)ccc1F`?
DUX4 txn inh: -2.0; DUX4 txn inh difference: -4.5; DUX4 txn inh control: 2.5

Results for Cc1ccccc1S(=O)(=O)N1CC(=O)N2[C@@H](CO)[C@H](c3ccc(C#CCC(C)C)cc3)[C@@H]2C1 ?
DUX4 txn inh: 18.9; DUX4 txn inh difference: 8.6; DUX4 txn inh control: 10.3

How did C[C@H](O)C#Cc1ccc([C@@H]2[C@@H](CO)N3CCCCN(C(=O)c4ccc5c(c4)OCO5)C[C@@H]23)cc1 do in these assays?
DUX4 txn inh: -5.7; DUX4 txn inh difference: 11.4; DUX4 txn inh control: -17.1

What do the screens show for `O=C(c1ccccc1)N1CC(=O)N2[C@H](C1)[C@@H](c1ccc(C3=CCCC3)cc1)[C@@H]2CO`?
DUX4 txn inh: -1.7; DUX4 txn inh difference: -0.6; DUX4 txn inh control: -1.1

How did N#C[C@H]1[C@@H](c2ccc(C#CC3CCCCC3)cc2)[C@@H](CO)N1S(=O)(=O)Cc1ccccc1 do in these assays?
DUX4 txn inh: 0.6; DUX4 txn inh difference: 1.7; DUX4 txn inh control: -1.1

How did COc1cccc(-c2ccc([C@@H]3[C@H](CO)N4CCCCN(S(=O)(=O)c5cccs5)C[C@@H]34)cc2)c1 do in these assays?
DUX4 txn inh: 8.1; DUX4 txn inh difference: 13.4; DUX4 txn inh control: -5.3

What do the screens show for `CS(=O)(=O)N1[C@H](CO)[C@@H](c2ccccc2-c2ccc(F)cc2)[C@@H]1C#N`?
DUX4 txn inh: -3.5; DUX4 txn inh difference: -0.4; DUX4 txn inh control: -3.1

What do the screens show for `CC(C)[C@@H]1C(=O)N[C@@H](c2ccc(F)cc2)CC=CC[C@@H](C)Oc2ccccc2C(=O)N1C` (mixture of isomers)?
DUX4 txn inh: 0.1; DUX4 txn inh difference: 3.8; DUX4 txn inh control: -3.7

Results for Cc1noc(C)c1NC(=O)N(C)C[C@H]1Oc2ccc(NC(=O)Cc3cn(C)c4ccccc34)cc2CC(=O)N([C@H](C)CO)C[C@H]1C ?
DUX4 txn inh: -3.5; DUX4 txn inh difference: 0.4; DUX4 txn inh control: -3.9

Results for CC(=O)NC[C@H]1[C@@H](c2ccc(C3=CCCCC3)cc2)[C@@H](CO)N1C(=O)C1CC1 ?
DUX4 txn inh: 0.7; DUX4 txn inh difference: -2.1; DUX4 txn inh control: 2.8

What do the screens show for `N#C[C@H]1[C@H](c2ccccc2C2=CCCC2)[C@@H](CO)N1C(=O)NC1CCCCC1`?
DUX4 txn inh: inconclusive

Results for O=C(NC1CCCCC1)N1CC2(C1)[C@H](c1ccccc1)[C@@H](CO)N2CC1CCOCC1 ?
DUX4 txn inh: -2.3; DUX4 txn inh difference: -6.5; DUX4 txn inh control: 4.1

Results for C[C@H](CO)N1C[C@H](C)[C@@H](CN(C)S(C)(=O)=O)Oc2ncc(-c3ccc(F)cc3)cc2C1=O ?
DUX4 txn inh: 3.7; DUX4 txn inh difference: -0.4; DUX4 txn inh control: 4.1

How did COc1ccc(S(=O)(=O)N2[C@@H]3CNC[C@H]2C3c2ccc(-c3ccccc3OC)cc2)cc1 (stereo partly drawn) do in these assays?
DUX4 txn inh: 12.5&21.0; DUX4 txn inh difference: 2.2&0.3; DUX4 txn inh control: 10.2&20.8

Results for COc1cccc(C#Cc2ccc3c(c2)O[C@H](CN(C)C(=O)CN2CCOCC2)[C@@H](C)CN([C@H](C)CO)S3(=O)=O)c1 ?
DUX4 txn inh: 4.3; DUX4 txn inh difference: -2.1; DUX4 txn inh control: 6.4

What do the screens show for `COc1ccc2c3c([nH]c2c1)[C@H](CO)NCC31CCN(C(=O)Nc2ccccc2F)CC1`?
DUX4 txn inh: 5.3; DUX4 txn inh difference: 14.3; DUX4 txn inh control: -9.0

How did N#C[C@H]1N[C@@H](CO)[C@@H]1c1ccc(C#CC2CCCCC2)cc1 do in these assays?
DUX4 txn inh: 1.7; DUX4 txn inh difference: 1.8; DUX4 txn inh control: -0.1

How did C[C@H](CO)N1C[C@H](C)[C@H](CN(C)C(=O)Nc2ccc(C(F)(F)F)cc2)Oc2c(NC(=O)c3ccc(-c4nccs4)cc3)cccc2C1=O do in these assays?
DUX4 txn inh: 3.2; DUX4 txn inh difference: 1.8; DUX4 txn inh control: 1.4

How did CO[C@@H]1CC[C@H]2CCN(C)C(=O)C[C@@H](c3ccccc3)CN(C)C(=O)c3cc(C#N)ccc3OC[C@@H]1O2 do in these assays?
DUX4 txn inh: 5.9; DUX4 txn inh difference: 4.8; DUX4 txn inh control: 1.0

What do the screens show for `CCNC(=O)C[C@H]1CC[C@@H]2[C@H](COC[C@H](O)CN2Cc2ccncc2)O1`?
DUX4 txn inh: 10.8; DUX4 txn inh difference: -2.7; DUX4 txn inh control: 13.4

How did O=C(C[C@H]1CC[C@H]2[C@@H](COC[C@@H](O)CN2Cc2nccs2)O1)NCc1ccccc1F do in these assays?
DUX4 txn inh: -0.2; DUX4 txn inh difference: -2.6; DUX4 txn inh control: 2.4

Results for C[C@H](CO)N1C[C@H](C)[C@@H](CN(C)C(=O)Nc2ccc3c(c2)OCO3)Oc2cc(C3=CCCCC3)ccc2S1(=O)=O ?
DUX4 txn inh: 1.9; DUX4 txn inh difference: -1.4; DUX4 txn inh control: 3.3

What do the screens show for `CC(C)CC#Cc1ccc([C@@H]2[C@H]3CN(C(=O)Nc4cc(F)ccc4F)CC(=O)N3[C@H]2CO)cc1`?
DUX4 txn inh: 4.0; DUX4 txn inh difference: -4.9; DUX4 txn inh control: 8.9

How did COc1cccc(C(=O)N2C[C@@H]3[C@H](c4ccccc42)[C@H](CO)N3C(=O)NC(C)C)c1 do in these assays?
DUX4 txn inh: -1.5; DUX4 txn inh difference: -1.4; DUX4 txn inh control: -0.1

Results for COc1ccc2c3c(n(C)c2c1)[C@H](CO)N(C(=O)CN1CCOCC1)CC31CN(C(=O)C2CC2)C1 ?
DUX4 txn inh: 3.3; DUX4 txn inh difference: -1.4; DUX4 txn inh control: 4.7

What do the screens show for `CN(C)C(=O)[C@@H]1[C@@H](CO)[C@@H]2Cn3c(ccc(-c4cccnc4)c3=O)[C@@H]2N1Cc1ccccc1F`?
DUX4 txn inh: 8.9; DUX4 txn inh difference: 10.3; DUX4 txn inh control: -1.4

Results for O=C(O)C[C@H]1C[C@H]2c3cc(NS(=O)(=O)c4ccc(F)cc4)ccc3O[C@H]2[C@H](CO)O1 ?
DUX4 txn inh: 11.3; DUX4 txn inh difference: 4.1; DUX4 txn inh control: 7.2

What do the screens show for `O=C(C1CC1)N1C[C@H]2[C@@H](c3ccccc31)[C@H](CO)N2C(=O)c1ccccc1`?
DUX4 txn inh: -1.6; DUX4 txn inh difference: -0.3; DUX4 txn inh control: -1.3

How did C[C@@H]1CCCCO[C@@H](CN(C)C(=O)Nc2ccc3c(c2)OCO3)[C@H](C)CN([C@H](C)CO)C(=O)c2cc(NC(=O)Nc3ccc(C(F)(F)F)cc3)ccc2O1 do in these assays?
DUX4 txn inh: -3.1; DUX4 txn inh difference: 0.5; DUX4 txn inh control: -3.6

How did Cn1cnc(S(=O)(=O)N2[C@@H]3CNC[C@H]2C3c2ccc(-c3ccc(F)cc3)cc2)c1 (stereo partly drawn) do in these assays?
DUX4 txn inh: 9.2; DUX4 txn inh difference: 4.3; DUX4 txn inh control: 4.8

Results for C[C@@H](NC(=O)[C@@H]1[C@@H](CO)[C@@H]2Cn3c(cccc3=O)[C@H]1N2C(=O)C1CCC1)c1ccccc1 ?
DUX4 txn inh: 2.4; DUX4 txn inh difference: -10.7; DUX4 txn inh control: 13.1

What do the screens show for `CO[C@H]1CC[C@@H]2CCOc3c(C#N)cccc3C(=O)N(C)C[C@H](C)C(=O)N(C)C[C@@H]1O2`?
DUX4 txn inh: -3.9; DUX4 txn inh difference: -0.5; DUX4 txn inh control: -3.4

Results for O=C(NCc1ccc(F)cc1)[C@H]1[C@H](CO)[C@H]2Cn3c(cccc3=O)[C@H]2N1C(=O)C1CC1 ?
DUX4 txn inh: 1.6; DUX4 txn inh difference: 6.3; DUX4 txn inh control: -4.7

How did COc1ccc(C(=O)N2C[C@@H]3[C@H](c4ccccc42)[C@H](CO)N3Cc2ccccc2Cl)cc1 do in these assays?
DUX4 txn inh: -1.2; DUX4 txn inh difference: -0.2; DUX4 txn inh control: -1.0

Results for COc1ccccc1NC(=O)N1C[C@@H]2[C@H](c3ccccc31)[C@@H](CO)N2C(C)=O ?
DUX4 txn inh: 2.0; DUX4 txn inh difference: 2.7; DUX4 txn inh control: -0.7

How did C[C@@H]1CN([C@H](C)CO)C(=O)CCCn2cc(nn2)CO[C@H]1CN(C)C(=O)Nc1ccccc1F do in these assays?
DUX4 txn inh: 10.4; DUX4 txn inh difference: 7.6; DUX4 txn inh control: 2.8

How did CCCNC(=O)C[C@@H]1CC[C@@H]2[C@H](COC[C@H](O)CN2C(=O)CC)O1 do in these assays?
DUX4 txn inh: 2.3; DUX4 txn inh difference: -5.8; DUX4 txn inh control: 8.2

What do the screens show for `COc1cccc(-c2ccc([C@H]3[C@H](CO)N4C(=O)CN(C(=O)CN5CCOCC5)C[C@@H]34)cc2)c1`?
DUX4 txn inh: 7.0; DUX4 txn inh difference: 1.1; DUX4 txn inh control: 5.9

How did C[C@H](CO)N1C[C@H](C)[C@@H](CN(C)C(=O)Cc2ccncc2)Oc2ncc(C3=CCCCC3)cc2C1=O do in these assays?
DUX4 txn inh: 2.0; DUX4 txn inh difference: -1.2; DUX4 txn inh control: 3.2

Results for CCNC(=O)[C@H]1[C@H](CO)[C@H]2Cn3c(ccc(-c4ccc(F)cc4)c3=O)[C@H]2N1Cc1ccccc1F ?
DUX4 txn inh: 1.9; DUX4 txn inh difference: 8.5; DUX4 txn inh control: -6.5

What do the screens show for `CN1C(=O)c2cc(NC(=O)C3CCOCC3)ccc2OC[C@@H]2O[C@@H](CC(=O)NCc3ccccc3F)CC[C@@H]21`?
DUX4 txn inh: -3.6; DUX4 txn inh difference: -2.0; DUX4 txn inh control: -1.5

How did C/C=C/c1ccc([C@H]2[C@H](CO)N[C@@H]2CN(CC)C(=O)c2cccnc2)cc1 do in these assays?
DUX4 txn inh: -0.1; DUX4 txn inh difference: -1.7; DUX4 txn inh control: 1.6

What do the screens show for `C[C@@H](NC(=O)C[C@@H]1CC[C@@H]2[C@H](COC[C@@H](O)CN2Cc2cc(F)ccc2F)O1)c1ccccc1`?
DUX4 txn inh: 7.2; DUX4 txn inh difference: 4.5; DUX4 txn inh control: 2.6

Results for CCCC#Cc1ccc2c(c1)O[C@H](CN(C)Cc1ccccn1)[C@H](C)CN([C@@H](C)CO)S2(=O)=O ?
DUX4 txn inh: -1.4; DUX4 txn inh difference: 0.6; DUX4 txn inh control: -2.0

Taken from the listing for reference:
How did C[C@H](CO)N1C[C@H](C)[C@@H](CN(C)C(=O)Cc2ccncc2)Oc2ncc(C3=CCCCC3)cc2C1=O do in these assays?
DUX4 txn inh: 2.0; DUX4 txn inh difference: -1.2; DUX4 txn inh control: 3.2

Results for CCNC(=O)[C@H]1[C@H](CO)[C@H]2Cn3c(ccc(-c4ccc(F)cc4)c3=O)[C@H]2N1Cc1ccccc1F ?
DUX4 txn inh: 1.9; DUX4 txn inh difference: 8.5; DUX4 txn inh control: -6.5

What do the screens show for `CN1C(=O)c2cc(NC(=O)C3CCOCC3)ccc2OC[C@@H]2O[C@@H](CC(=O)NCc3ccccc3F)CC[C@@H]21`?
DUX4 txn inh: -3.6; DUX4 txn inh difference: -2.0; DUX4 txn inh control: -1.5

How did C/C=C/c1ccc([C@H]2[C@H](CO)N[C@@H]2CN(CC)C(=O)c2cccnc2)cc1 do in these assays?
DUX4 txn inh: -0.1; DUX4 txn inh difference: -1.7; DUX4 txn inh control: 1.6

What do the screens show for `C[C@@H](NC(=O)C[C@@H]1CC[C@@H]2[C@H](COC[C@@H](O)CN2Cc2cc(F)ccc2F)O1)c1ccccc1`?
DUX4 txn inh: 7.2; DUX4 txn inh difference: 4.5; DUX4 txn inh control: 2.6

Results for CCCC#Cc1ccc2c(c1)O[C@H](CN(C)Cc1ccccn1)[C@H](C)CN([C@@H](C)CO)S2(=O)=O ?
DUX4 txn inh: -1.4; DUX4 txn inh difference: 0.6; DUX4 txn inh control: -2.0

Compound activity deposited in PubChem BioAssay by Broad Institute.
